RecA splice inh: blocks M. tuberculosis RecA intein splicing; cell-free RecA intein splicing, fluorescence; inhibition, %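 (about 9 µM by stock and volumes)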; 0.75% of 290,000 active; in the data active = inhibition above about 30%; inconclusive = no clear call, values can overlap the other calls;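 also: 0% = vehicle wells and 100% = reference inhibitor control wells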
Target sequence (P9WHJ3 whole entry, looked up, canonical isoform): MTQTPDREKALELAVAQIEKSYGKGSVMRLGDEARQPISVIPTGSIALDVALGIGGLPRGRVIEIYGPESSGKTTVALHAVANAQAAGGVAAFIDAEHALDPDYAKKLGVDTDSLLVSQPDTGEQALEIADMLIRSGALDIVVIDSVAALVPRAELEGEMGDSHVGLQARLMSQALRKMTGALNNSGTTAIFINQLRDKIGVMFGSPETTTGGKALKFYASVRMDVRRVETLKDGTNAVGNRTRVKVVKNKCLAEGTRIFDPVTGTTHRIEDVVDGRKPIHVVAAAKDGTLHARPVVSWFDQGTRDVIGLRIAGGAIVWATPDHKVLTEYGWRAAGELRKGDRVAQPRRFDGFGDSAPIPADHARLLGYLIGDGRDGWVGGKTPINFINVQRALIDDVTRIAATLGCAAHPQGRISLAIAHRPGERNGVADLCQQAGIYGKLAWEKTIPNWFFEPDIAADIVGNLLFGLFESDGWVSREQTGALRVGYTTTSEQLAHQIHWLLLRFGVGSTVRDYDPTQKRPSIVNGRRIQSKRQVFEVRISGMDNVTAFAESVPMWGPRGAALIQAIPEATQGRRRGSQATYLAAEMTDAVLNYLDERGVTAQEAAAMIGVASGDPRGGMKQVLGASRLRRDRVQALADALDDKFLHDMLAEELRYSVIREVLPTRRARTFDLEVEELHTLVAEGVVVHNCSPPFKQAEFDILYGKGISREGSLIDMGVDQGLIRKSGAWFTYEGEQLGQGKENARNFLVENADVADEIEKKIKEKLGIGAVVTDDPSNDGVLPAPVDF
YopH PTP inh: blocks Yersinia enterocolitica YopH tyrosine phosphatase; 0.16% of 140,000 active; fluorescence Ex485/Em525; inhibition, %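 (about 10 µM by stock and volumes)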;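 active = inhibition of 50% or more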;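 also: controls were vehicle for no effect and minimum signal wells for full effect; inactives centre near -20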
Mtb H37Rv: M. tuberculosis H37Rv growth inhibitors, H37Rv strain (AID 1626). M. tuberculosis H37Rv growth inhibition; higher % means a stronger effect. one-dose inhibition, % at 10 µM; IC50 in µM for titrated hits. 0.95% of 220,000 active;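 active = confirmed in a dose series; inconclusive = inhibition above 80% but not taken into the dose series; inactive = below 80% or under 30% at every dose of the series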;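 also: bacteria incubated seven days before Alamar blue readout; 0% = bacteria only wells and 100% = bacteria with antibiotic wells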
Mtb betalactam: beta-lactam sensitization of Mtb H37Rv; M. tuberculosis H37Rv growth with meropenem, percent inhibition; hits of this screen are not shown here; inhibition, % at 25 µM; 0.27% of 330,000 active;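 active = about 74% or more and at least 40 points above the plate without the antibiotic, then above 30% in a dose series; inconclusive = first-round hits that could not be retested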;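 also: growth measured after seven days incubation then overnight dye step; 0% = bacteria only wells and 100% = bacteria with antibiotic; twin plates without the antibiotic show which effects depend on it; some results filed as inactive read as strong as hits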
Arbovirus anti: antivirals against arbovirus infection | arbovirus infection cell-based antiviral screen | 0.37% of 200,000 active | inhibition, % at 10 µM;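 active = inhibition from about 30%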;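 also: bluetongue infection of BSR cells; cell survival read as ATP light after 72 h; 0% = infected wells without compound and 100% = uninfected wells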
Arbovirus anti repeat: second read-out of Arbovirus anti, no call of its own (marks repeat the call); inhibition, %; measured here: 10K subset replicate screen; many hits read low in the repeat;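 first of two repeat runs on a subset; 0% = infected and 100% = uninfected wells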
Active calls of the source: *; u = inconclusive; x = no result given. Only part of the results is shown; the hit share may differ from the screen's.

Start of the data: the first six records (preview)
SMILES	RecA splice inh	YopH PTP inh	Mtb H37Rv	Mtb betalactam	Arbovirus anti	others
CCC(CC)c1nc2ccccc2c(=O)[nH]1	-0.4	x	-8%	7	-4
COC(=O)N1CCN(c2ccc(OC)cc2)CC1	0.0	38	-2%	6	-2
Cc1nn2c(=O)c(NC(=O)c3ccc(F)cc3)cnc2s1	0.0	-20	0%	-4	-3
COc1ccc(S(=O)(=O)n2ccc(-c3cnc(-c4ccccc4)s3)n2)cc1	6.3	-47	10%	-4	4
Clc1cccc(N2CCNCC2)n1	-0.8	x	-4%	-9	0
O=C(Nc1ccccn1)c1cccs1	0.1	-9	1%	-5	1

The whole of this part, repeating the preview:
SMILES	RecA splice inh	YopH PTP inh	Mtb H37Rv	Mtb betalactam	Arbovirus anti	others
CCC(CC)c1nc2ccccc2c(=O)[nH]1	-0.4	x	-8%	7	-4
COC(=O)N1CCN(c2ccc(OC)cc2)CC1	0.0	38	-2%	6	-2
Cc1nn2c(=O)c(NC(=O)c3ccc(F)cc3)cnc2s1	0.0	-20	0%	-4	-3
COc1ccc(S(=O)(=O)n2ccc(-c3cnc(-c4ccccc4)s3)n2)cc1	6.3	-47	10%	-4	4
Clc1cccc(N2CCNCC2)n1	-0.8	x	-4%	-9	0
O=C(Nc1ccccn1)c1cccs1	0.1	-9	1%	-5	1
CCCCNc1nc(-c2ccccc2)c(C(=O)OCC)cc1C#N	12	-46	24%	-1	-16
COc1ccc(N2CC(C(=O)N3CCN(c4ccccc4)CC3)CC2=O)cc1 (stereo unspecified)	-0.7	x	x	1	x
O=C1NC2(CCCCC2)N=C1c1ccc(F)cc1	-2.4	-45	0%	-16	1
O=C(Nc1ccc(Cl)c(Cl)c1)Nc1ccc(Br)cc1F	2.9	-29	u	73	-5
CNC(=O)CSc1nnnn1-c1cc(C)ccc1C	0.5	4	-1%	-8	4
CC(=O)Nc1cccc(NC(=O)c2ccc(C(=O)Nc3cccc(NC(C)=O)c3)nc2)c1	3.7	x	1%	4	-5
COc1ccc(S(=O)(=O)N2CCOC2CNC(=O)C(=O)NCc2cccnc2)cc1OC (stereo unspecified)	-1.8	x	-6%	-1	x
CN(C)c1cc(N/N=C/c2ccc(Cl)cc2)nc(N(C)C)n1	x	x	50%	x	5
O=C(NCC1CCCO1)C1CC(=O)N(c2ccc(F)c(Cl)c2)C1 (stereo unspecified)	-3.0	-59	-1%	-1	17	Arbovirus anti repeat=2
Cc1[nH]c2c(C)cccc2c1CN1CCC(CO)(Cc2ccccc2)CC1	0.7	x	9%	-12	x
O=C(CN1C2CCCC1CC(NC(=O)C1CCCCC1)C2)NCc1ccc(F)cc1 (stereo unspecified)	0.4	x	0%	-5	x
COCc1cc(C)nc(SCC[N+](C)(C)CC(=O)Nc2ccccc2)c1C#N	1.5	x	-3%	2	1
CC1CCN(c2nc3nonc3nc2N2CCC(C)CC2)CC1	0.8	-24	0%	-5	3
CC(C)(C)c1ccc(-c2n[nH]c(=S)n2-c2ccccc2)cc1	-1.3	x	x	-1	x
O=C1NC[C@@H](Cc2cccc3ccccc23)N(CC2(c3ccccc3)CC2)C1=O	13	x	8%	62	x
Cc1nnc(SCC(=O)N2CCN(S(=O)(=O)c3ccccc3)CC2)s1	-2.1	x	-2%	-6	4
CCOC(=O)N1CCN(C(=O)/C(=C\c2cccs2)NC(=O)c2cccs2)CC1	0.4	x	3%	-3	0
CCN(Cc1ccccc1)C(=O)c1oc2ccc(C)cc2c1C	11	x	x	7	x
CN(CCN1CCOCC1)Cc1nc(-c2ccccc2)no1	1.2	x	0%	0	-3
Cc1cc(=O)c(C(=O)OC(C)C(=O)NC(N)=O)nn1-c1ccc(Cl)cc1 (stereo unspecified)	2.0	x	x	0	x
Cc1ccc(-c2cn3cccnc3n2)cc1NC(=O)c1cccs1	-5.2	-9	-3%	-4	-9
CCOC(=O)N1CCC(N(CCN(C)C)C(=S)Nc2ccccc2Cl)CC1	-4.2	x	8%	-5	9
Clc1ccc2c(c1)c1ccccc1n2CN1CCOCC1	4.6	-40	5%	7	-11
COc1cc(CCC(=O)Oc2ccc(C(C)=O)cc2)cc(OC)c1OC	0.8	-39	5%	-5	0
COc1ccc(S(=O)(=O)N2CCN(c3ncccn3)CC2)cc1[N+](=O)[O-]	-0.5	x	x	1	x
COc1cc2ccccc2cc1C(=O)Nc1cc(C)ccn1	-0.3	x	x	13	x
Fc1ccccc1N1CCN(CC2CCCCC2)CC1	-2.5	x	x	8	x
CCc1cc2ccc(C)cc2nc1SCC(=O)Nc1cc(OC)c(OC)cc1C(=O)O	-7.0	-40	-12%	1	7
COc1cc(NC(=O)CN2C(=O)C(c3ccccc3)=NC23CCCCCC3)cc(OC)c1	5.4	-8	7%	-3	17
CCc1ccc(CN2CCC(C(=O)Nc3ccc(-n4nc(C)cc4C)cc3)CC2)o1	0.1	x	x	-10	x
CC(C)c1ccc(C2=C(O)c3ccccc3C(=O)C2=O)cc1	3.7	-1	-1%	2	33*
O=C(O)CSc1ccccc1C(=O)O	0.1	-14	-3%	-4	2
C=CCNC(=O)CNS(=O)(=O)c1ccc(F)cc1	-0.8	-35	0%	14	6
Cc1ncsc1C(=O)O	1.0	x	-9%	-1	1

A draw from above in order of molar mass, smallest number first:
SMILES	RecA splice inh	YopH PTP inh	Mtb H37Rv	Mtb betalactam	Arbovirus anti	others
C=CCNC(=O)CNS(=O)(=O)c1ccc(F)cc1	-0.8	-35	0%	14	6
CCc1ccc(CN2CCC(C(=O)Nc3ccc(-n4nc(C)cc4C)cc3)CC2)o1	0.1	x	x	-10	x
COc1cc(NC(=O)CN2C(=O)C(c3ccccc3)=NC23CCCCCC3)cc(OC)c1	5.4	-8	7%	-3	17

Remaining list, next part:
SMILES	RecA splice inh	YopH PTP inh	Mtb H37Rv	Mtb betalactam	Arbovirus anti	others
Cc1ccc(C(=O)OCc2cc3ccccc3[nH]c2=O)cc1	-2.6	-37	1%	3	-3
Cc1ccc(C(=O)Nc2ccc(Nc3ccccc3)cc2)cc1C	25	x	x	20	x
CCOC(=O)c1c(C)[nH]c(C(=O)COC(=O)C2CC(=O)N(Cc3ccccc3)C2)c1C (stereo unspecified)	-3.7	-31	-7%	-4	2
CCOc1ccc(Cn2cc(F)c(=O)[nH]c2=O)cc1	-0.1	x	0%	3	x
Cc1ccc(/C(N)=N/OC(=O)CN(C)S(=O)(=O)c2ccc(C)cc2)cc1	3.8	x	x	1	x
C/C(N=Nc1nc2ccccc2s1)=N\Nc1ccccc1O	0.7	x	u	101	x
O=C(CC1C(=O)NCCN1Cc1ccoc1)NCc1cccc(OC(F)(F)F)c1 (stereo unspecified)	0.6	x	-3%	-1	x
COc1ccccc1-c1nnc(SCc2nc3ccccc3s2)n1C	1.7	-15	3%	-7	3
O=C(NNc1ncccc1-n1cccc1)c1ccc(Cl)cc1	0.5	x	-11%	-2	x
O=C1Nc2ccccc2C1=Nc1ccc(S(=O)(=O)Nc2nccs2)cc1	5.6	x	4.5µM*	99	x
CCc1nnc(NC(=O)c2n[nH]c(=O)c3ccccc23)s1	2.2	x	-5%	60	x
CCN(Cc1ccccc1)C(=O)c1ccc(CNS(=O)(=O)c2ccc(C)cc2)cc1	4.8	-23	3%	4	-3
COC(=O)c1cc(S(=O)(=O)NC2CCN(Cc3ccccc3)CC2)cn1C	1.7	-54	-4%	-7	8
O=C(Nc1ccccn1)c1ccc2c(c1)OCCO2	0.5	x	8%	0	1
Oc1ccc(Br)cc1-c1n[nH]c(=S)n1Cc1ccccc1	3.6	x	x	5	x
CC(=O)C1=C(O)C(=O)N(c2ccc(Br)cc2)C1c1ccc([N+](=O)[O-])cc1 (stereo unspecified)	0.3	x	x	2	x
O=C(CSc1ncccn1)NC(=O)c1ccccc1	x	x	-4%	-10	8
CCOC(=O)Cc1csc(NC(=O)COc2ccc(N(C)S(=O)(=O)c3ccc(C)cc3)cc2)n1	4.7	5	1%	11	4
FC(F)(F)c1ccc(CN2CCCCCC2)cc1	-1.6	-24	-3%	7	-2
O=C(Nc1nnc(-c2ccc(F)cc2)o1)c1cccc([N+](=O)[O-])c1	0.3	x	5.7µM*	97	-7
Cc1cccc(C(=O)N/N=C/c2ccncc2)c1	0.8	-18	-18%	-5	-6
CCOC(=O)c1ccc(N=c2sc(C(=O)OC)cc(=O)n2Cc2ccco2)cc1	6.7	-29	12%	-2	-27	Arbovirus anti repeat=-30
COC(=O)c1sc2[nH]c(=S)n(N)c(=O)c2c1C	x	x	-1%	x	8
COc1ccc(-n2c(Cc3cc(=O)[nH]c(=O)[nH]3)nnc2SCC(=O)Nc2cc(C(F)(F)F)ccc2Cl)cc1	4.5	x	2%	10	1
Cc1ccc(S(=O)(=O)N2CCOCC2)cc1C(=O)Nc1ccccc1F	0.1	x	x	0	x
COc1ccc(-c2nn(-c3ccccc3)cc2/C=N/Nc2ccc(Cl)c(C(=O)O)c2)cc1OC	3.6	x	2%	26	x
CSc1nc2ccc(NS(=O)(=O)c3ccc(Br)s3)cc2s1	0.4	x	0%	20	x
Cc1ccc(N(CC(O)CN2C(=O)NC(C)(C)C2=O)S(=O)(=O)c2ccc(C)cc2)cc1 (stereo unspecified)	-0.4	x	9%	5	x
Cc1ccc(/C=N/NC(=O)C(C)Oc2cccc3ccccc23)o1 (stereo unspecified)	-0.2	x	x	0	x
NCCCC[C@H]1CN=C(N)N1CCC12CC3CC(CC(C3)C1)C2	-7.2	x	5%	-7	x
O=C(OCCN1C(=O)c2ccccc2C1=O)Oc1ccccc1	-2.6	x	x	1	x
CC(=O)NCC(=O)N(Cc1ccco1)C1(C(=O)NC2CCCC2)CCCCC1	-1.4	x	1%	1	6
Cc1[nH]n(-c2ccc(Br)cc2)c(=O)c1C=Nc1ccc(S(=O)(=O)Nc2nccs2)cc1	5.8	-21	11µM*	82	-4
Cc1cc2nnc(SCC(=O)N3CCCCCC3)n2c(N)n1	0.0	x	1%	0	-2
Cc1ccc(OCC(=O)NNC(=S)NC(=O)C2CCCCC2)c(C)c1	-0.1	x	x	99	x
Cc1ccc(NC(=O)CSc2n[nH]c(=O)n2C2CC2)cc1S(=O)(=O)N1CCOCC1	-2.1	-29	-9%	0	4
CCC/C(O)=C1\C(=O)CC(C)(C)CC1=Nc1ccccc1O	-2.4	x	-1%	1	5
CCC(c1nnc(SCC(=O)N(C)c2ccccc2)n1Cc1ccccc1)N(C)C (stereo unspecified)	-5.5	x	x	-9	x
Cc1cc(NC(=O)c2cc(S(=O)(=O)N3CCCCC3)ccc2C)n(-c2ccccn2)n1	x	-42	1%	-9	2
COc1ccc(CN(C#N)c2nc(SC)nc(N(C)C)n2)cc1	7.4	-43	-7%	4	-7
O=C(NCCc1ccccc1)c1ccccc1Cl	1.7	x	x	8	x
Cc1cc(C(=O)Nc2ccccc2[N+](=O)[O-])cs1	-0.6	x	x	-11	x
Cc1ccccc1OCC(=O)NCCC1=CCCCC1	4.6	-16	11%	30	2
Cc1n[nH]c(=S)n(/N=C/c2ccccn2)c1=O	1.2	-53	0%	-19	-10
COC(=O)c1ccc(CN2CCc3ccc(NC(=O)c4ccncc4)cc3C2)cc1	1.2	x	x	-11	x
CCOC(=O)N1CCC(N2Cc3cccc(C(=O)N4CCN(C5CCCCC5)CC4)c3C2=O)CC1	1.0	-47	0%	-1	0
Cc1cc(C)n(CC(O)Cn2c3ccccc3c3ccccc32)n1 (stereo unspecified)	-0.4	6	10%	26	-12
Cc1cc2oc3ccc(NCCCN4CCOCC4)cc3c(=O)c2cc1C	-7.2	x	5%	-17	x
CC(C)NC(=O)CN1CCN(C(=O)CCl)CC1	0.5	x	-8%	-3	17
CC12CCC(C/C1=N\OC(=O)c1c(F)cccc1F)C2(C)C (stereo unspecified)	-0.6	x	8%	-1	x
CCOC(=O)C1C(c2ccc(O)c(OCC)c2)NC(=S)NC1(O)C(F)(F)F (stereo unspecified)	-1.0	-2	-6%	-4	2
CSc1nc(-c2ccccc2)[nH]c(=S)c1C(C)=O	0.3	-33	1%	-5	5
O=C1Nc2ccc(Br)cc2C(c2ccccc2Cl)=NC1O (stereo unspecified)	0.2	x	4%	6	1	Arbovirus anti repeat=5

Bioassay records as filed in PubChem.
